Calb FLC: C. albicans growth inhibition with fluconazole, primary screen, CaCi-2 strain, Alamar Blue fluorescence | growth inhibition, % (no concentration beside the values) | C. albicans CaCi-2 (fluconazole-resistant clinical isolate) + fluconazole, 48 h | AID 1979, 2009 | 300,000 tested, 0.57% active;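 active = most replicates above 75%; inconclusive = exactly half above 75%; inactive = most below 75%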;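 also: all wells also contain fluconazole at 8 µg/ml as a sub-toxic cotreatment; 0% = median of DMSO wells and 100% = median of geldanamycin control wells; wells of about 8 µL received 7.5 nL stock; the first replicate is given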
Ecoli rRNA inh: reduced GFP signal of wild-type E. coli, primary screen, bacterial rRNA inhibitor project, GFP/RFP fluorescence, OD600, single point. E. coli WT GFP vs humanized-ribosome RFP mutants, 24 h; stronger effect = lower value; DMSO median 0, no signal -100. GFP signal change (wild-type ribosome), % (no concentration beside the values). 350,000 tested, 1.6% active;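 active = significant combined selectivity score with lowered wild-type GFP, culture density cut under 30%, mutant RFP and density less affected; inactive = any of these conditions unmet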; also: one replicate is shown; some compounds called inactive have numbers as strong as hits
T cruzi inh: inhibitors of intracellular T. cruzi growth, primary screen, luminescence, NIH3T3 host cells | 300,000 tested, 1.4% active | AID 1885, 2009 | T. cruzi beta-gal in NIH3T3, 90 h | inhibition, % (test concentration not listed);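 active = mean inhibition across valid replicates above about 55%, limit read from the data; inconclusive = mean below that limit but half or more replicates reach it; inactive = mean below it, under half of replicates reach it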;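 also: signal also drops with host cell toxicity which is not excluded here; 0% = plate median of DMSO wells and 100% = zero luminescence signal; higher percent means less beta-gal luminescence so fewer parasites; stock transfer was 50 nL into about 50 µL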
B2AR ag: beta2AR agonists driving receptor internalization, primary screen, cell-based, FAP fluorogen, flow cytometry | Am2.2-beta2AR cells; reference of the scale not given here | response, % (test concentration not listed) | 340,000 tested, 0.43% active;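 active = response above a set limit, near 3 SD of response in nonfluorescent compounds, cut at about 42% in these data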;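 also: stock transfer was 100 nL into about 11 µL; a reference agonist was the positive control; negative values mostly stem from fluorescent compounds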
ALR inh: inhibitors of human ALR sulfhydryl oxidase, primary screen, biochemical, H2O2 detection, HRP-luminol luminescence, single point | inhibition, % (test concentration not listed) | purified ALR, DTT oxidation | FAD-linked sulfhydryl oxidase ALR (Homo sapiens), P55789 | 290,000 tested, 3.8% active;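 active = mean and each replicate at 75% or more; inconclusive = only one of the two met; inactive = neither met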;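 also: stock transfer was 7.5 nL into about 7.5 µL; 0% = neutral wells and 100% = wells with inactivated enzyme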
LANA-H2B inh: blockers of LANA interaction with H2A/H2B – biochemical, FP readout, HTS, primary screen; Protein LANA1 (Human herpesvirus 8 type P (isolate GK18)), Q9QR71; cell-free LANA-H2A/H2B peptide, fluorescence polarization; inhibition, % (test concentration not listed); 320,000 tested, 0.6% active; AID 2629, 2010; in the data active = inhibition mostly above about 10%, no sharp cut-off; inactive = mostly below about 6.7%;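 also: stock transfer was 7.5 nL into about 10 µL; 0% = median of vehicle wells and 100% = median of positive control wells; one replicate is shown; the record names a cut of 25% in any replicate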
Target sequence (Q9QR71 whole entry, looked up): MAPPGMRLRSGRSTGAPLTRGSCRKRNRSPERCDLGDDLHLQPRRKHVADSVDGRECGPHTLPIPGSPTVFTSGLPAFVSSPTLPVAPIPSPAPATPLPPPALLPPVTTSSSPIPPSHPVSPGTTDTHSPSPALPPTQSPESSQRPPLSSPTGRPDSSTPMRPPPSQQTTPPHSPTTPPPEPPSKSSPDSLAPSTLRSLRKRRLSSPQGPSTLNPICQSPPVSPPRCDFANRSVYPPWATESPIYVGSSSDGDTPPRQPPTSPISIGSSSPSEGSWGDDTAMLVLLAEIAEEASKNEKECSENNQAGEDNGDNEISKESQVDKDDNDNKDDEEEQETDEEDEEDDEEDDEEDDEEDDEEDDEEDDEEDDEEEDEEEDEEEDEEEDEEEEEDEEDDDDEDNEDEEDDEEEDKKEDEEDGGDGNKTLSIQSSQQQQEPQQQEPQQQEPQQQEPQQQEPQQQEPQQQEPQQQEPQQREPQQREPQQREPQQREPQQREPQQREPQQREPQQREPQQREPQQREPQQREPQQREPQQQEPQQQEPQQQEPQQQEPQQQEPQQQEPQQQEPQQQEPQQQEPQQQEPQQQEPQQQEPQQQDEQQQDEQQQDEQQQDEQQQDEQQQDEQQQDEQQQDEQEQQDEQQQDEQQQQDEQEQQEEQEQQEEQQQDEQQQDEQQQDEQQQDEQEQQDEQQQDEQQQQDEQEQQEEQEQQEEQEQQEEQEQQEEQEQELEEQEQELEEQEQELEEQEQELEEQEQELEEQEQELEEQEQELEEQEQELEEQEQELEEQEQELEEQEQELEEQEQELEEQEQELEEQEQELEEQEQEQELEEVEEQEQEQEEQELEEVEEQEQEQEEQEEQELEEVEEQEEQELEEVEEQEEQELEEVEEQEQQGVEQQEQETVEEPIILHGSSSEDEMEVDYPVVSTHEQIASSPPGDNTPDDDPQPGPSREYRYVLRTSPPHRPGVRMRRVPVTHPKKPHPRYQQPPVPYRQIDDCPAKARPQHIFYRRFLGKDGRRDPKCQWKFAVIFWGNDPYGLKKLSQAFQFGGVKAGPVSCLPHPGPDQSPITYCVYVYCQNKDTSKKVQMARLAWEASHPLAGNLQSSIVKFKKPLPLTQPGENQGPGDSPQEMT
Bfl-1 A1 inh: caspase 3/7 activation in MEF A1-2A-BIM cells, primary screen, A1 inhibitor project, cell-based, luminescence, HTS. Caspase-Glo 3/7 luminescence, 3 h; percent of clofoctol response, vehicle zero. caspase activation, % (concentration not given with the values). 330,000 tested, 0.066% active;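 active = over half of replicate activation scores above 10%, or exactly half above 10 with the replicate mean above 10; inconclusive = replicate mean below 10 yet half the replicates above 10; inactive = over half of replicates below 10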;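 also: wells of about 30 µL received 50 nL stock; many hits fall short of the cut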
Beta apoptosis: inhibitors of cytokine-induced beta cell apoptosis, primary screen, luminescence | AID 435005, 2010 | INS-1E cytokine-induced death, ATP luminescence, 48 h; percent of positive-control rescue, neutral wells zero | 300,000 tested, 0.8% active | protection from apoptosis, % (no concentration beside the values);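 active = all replicates at 75% or more, or half of them and the mean; inconclusive = half reach 75% but not the mean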;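 also: 0% = cytokine-treated negative control wells and 100% = positive control rescue; higher means more ATP so stronger rescue from cytokine killing; wells of about 40 µL received 100 nL stock; the first replicate is given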
Ecoli rRNA inh OD600: recorded beside Ecoli rRNA inh, whose call it bears; OD600 change, %; measured here: OD600 growth;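 optical density of the mix in the first replicate; 0 = DMSO median and -100 = no signal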
Ecoli rRNA inh RFP: second read-out of Ecoli rRNA inh, no call of its own (marks repeat the call); RFP signal change, %; measured here: RFP humanized mutant strains;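 first replicate; 0 = DMSO median and -100 = no signal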
The depositor's hits bear a star; ? = inconclusive; / = no result given. Some of the compounds tested; count on the stated rates, not on these rows.

Molecule,Calb FLC,Ecoli rRNA inh,Ecoli rRNA inh OD600,Ecoli rRNA inh RFP,T cruzi inh,B2AR ag,ALR inh,LANA-H2B inh,Bfl-1 A1 inh,Beta apoptosis
Cc1cccc(CS(=O)(=O)c2nnc([C@H](Cc3ccccc3)NC(=O)OC(C)(C)C)o2)c1,-16,/,/,/,43,61*,60,-3.6,0.8,53
COc1cc2c(cc1OC)CN(C(=O)COc1ccccc1[N+](=O)[O-])CC2,0,-2,-3,0.6,9,-4,/,-4.5,0.0,1
CC(C)(C)c1ccc(S(=O)(=O)N2CCN(Cc3cc4c(cc3O)OCO4)CC2)cc1,/,-4,7,-1.1,/,-1,/,-4.6,-2.2,-3
O=C1[C@H]2[C@@H](c3ccc(F)cc3)N3C(=O)N(c4cccc(F)c4)C(=O)[C@@]3(Cc3ccc(Cl)cc3)[C@H]2C(=O)N1C1CCCCC1,0,7,14,-1.6,30,5,13,-0.2,0.5,22
CCN1CCCC1CN(Cc1cc2ccc(C)cc2[nH]c1=O)C(=S)Nc1ccccc1C(=O)OC (stereo unspecified),0,-5,-17,1.1,21,-3,2,-1.9,-0.9,2
Cc1ccc(S(=O)(=O)N2CCN(C(=O)COC(=O)c3oc4ccccc4c3C)CC2)cc1,2,-2,4,-1.8,3,-6,-1,-2.8,0.4,-3
COc1ccc(NC(C)=O)cc1S(=O)(=O)NCCc1ccccn1,/,5,2,-1.9,/,-5,3,30*,1.8,-3
COc1ccc(OC)c(S(=O)(=O)Nc2c(C)n(C)n(-c3ccccc3)c2=O)c1,-8,7,4,-0.6,-8,-6,-7,4.3,1.8,-6
Cc1ccc(S(=O)(=O)N(C)CC(=O)N2CCCc3ccccc32)cc1,-2,/,/,/,4,-7,-15,-0.1,1.3,-2
CCN(CC)Cc1c(O)ccc2c([N+](=O)[O-])c(C)n(-c3ccc(OC)cc3)c12,2,/,/,/,1,-3,/,-2.5,0.3,-20
CCOC(=O)c1ccc(NC(=O)CSc2nnnn2C2CCCCC2)cc1,-16,/,/,/,-11,4,-1,1.8,-2.0,-9
CCSC1=N/C(=C\c2ccccc2)C(=O)N1,3,6,14,-2.5,-10,14,9,1.9,0.3,-4
CN1CCN(C(=O)C2CCN(S(=O)(=O)c3ccc(F)cc3)CC2)CC1,3,11,3,-0.3,14,-5,-5,-4.5,0.1,-1
COCCNC(=O)NC(=O)COC(=O)C1(c2ccc(Cl)cc2)CC1,-3,5,0,6.9,2,14,-6,4.5,-0.7,4
NC(=S)N=Nc1c(O)n(CCCl)c2ccccc12,3,13,12,-1.5,11,-5,3,-0.8,0.4,8
O=C(N/N=C/c1ccsc1)c1cc2ccccc2o1,-24,9,6,-0.3,-8,4,5,2.7,-1.6,5
O=C(N/N=C/c1ccccc1Cl)C1CC1,-7,5,10,-0.5,-8,-1,-9,0.8,-0.7,-6
Cc1cc(C)cc(N(C(=O)c2csnn2)C(C(=O)NC2CCCCC2)c2ccncc2)c1 (stereo unspecified),14,-1,2,-0.1,-3,-3,0,-3.7,-0.6,2
Cc1ccc(-c2cnc(-c3ccccc3C(=O)O)o2)cc1,2,-6,-3,-3.5,-8,8,1,-1.9,0.2,-3
COc1cc(/C=C2\C(=N)N3N=C(C(C)C)SC3=NC2=O)ccc1OCCOc1ccc(NC(C)=O)cc1,-5,0,-2,6.3,7,4,0,1.5,0.6,-2

Other results:
Molecule,Calb FLC,Ecoli rRNA inh,Ecoli rRNA inh OD600,Ecoli rRNA inh RFP,T cruzi inh,B2AR ag,ALR inh,LANA-H2B inh,Bfl-1 A1 inh,Beta apoptosis
COC(=O)CNc1c(-c2ccccc2)nc2ccc(Br)cn12,-54,/,/,/,1,-1,99*,-3.4,-1.6,4
O=C(Nc1nc2nccc(-c3ccccc3)n2n1)c1ccccc1,2,7,17,-1.7,23,-3,/,-3.8,-0.3,-4
CC1CCc2c(sc(NC(=O)c3c([N+](=O)[O-])cnn3C)c2C(N)=O)C1 (stereo unspecified),10,11,10,-1.4,/,-7,-2,2.2,-0.4,3
O=C1C(Cc2ccccc2)S/C(=N/N=C/c2ccco2)N1c1ccccc1 (stereo unspecified),-1,/,/,/,-3,4,1,1.2,0.0,3
C=CCn1c(=O)c(C(=O)NCc2ccccc2Cl)c(O)c2ccccc21,2,18,18,-2.0,-4,-3,2,1.6,-0.5,/
CC(=O)c1nn(-c2cccc(Br)c2)cc1C(=O)c1ccc(Cl)cc1,?,10,17,1.9,2,-3,/,-1.9,0.4,7
COc1ccc(C2=C/C(=C\c3ccc(OC(C)=O)cc3)C(=O)O2)cc1,0,8,12,-0.5,-3,-1,?,2.7,-0.9,-1
CCOC(=O)c1c(C(=O)OCC)c(C)n(CCc2ccccc2)c1C,8,/,/,/,12,-2,-3,-1.5,0.0,3
COC(=O)N1CCN(S(=O)(=O)c2ccc(F)cc2)CC1,27,/,/,/,-2,4,-3,-4.9,-0.7,-3
Cc1ccc(OCCCN2CCCC2)c(C)c1,-9,/,/,/,12,0,-9,2.2,0.7,-3
CC(C)CNC(=O)C1Nc2ccc(C(F)(F)F)cc2C2C=CCC12 (stereo unspecified),-8,/,/,/,0,1,-3,-1.5,-0.1,-3
O=C(O)c1cccnc1SCC(=O)N1CCCc2ccccc21,4,19,4,3.7,-6,17,/,-1.9,1.6,-8
CC1CCN(C(=O)c2[nH]cnc2C(=O)Nc2ccc(Cl)cc2)CC1,/,13,7,-2.2,/,-9,2,0.6,1.9,-14
COc1cccc(N=C2SC(CC(=O)Nc3ccccc3)C(=O)N2Cc2ccccn2)c1 (stereo unspecified),12,-6,6,22,10,-1,71,-2.6,1.2,-4
c1ccc(-c2csc(Nc3cccnc3)n2)nc1,3,/,/,/,36,-25,5,-1.4,0.1,0
CCCn1ncc2c(Nc3ccc(C)c(C)c3)ncnc21,-9,-5,-14,1.3,8,5,96*,0.8,-0.8,-6
CN1N=C(C(=O)Nc2ccc3c(c2)CCC3)CCC1=O,-24,1,-3,-0.6,3,14,-6,3.1,-1.2,-1
CN(CC(=O)NCCc1ccccc1)S(=O)(=O)c1cccc2nsnc12,-23,/,/,/,-1,5,-2,9.3,1.4,-16
CC1CN(C2=NC(=O)/C(=C3/C(=O)N(Cc4ccc(F)cc4)c4ccccc43)S2)CC(C)O1 (stereo unspecified),-1,11,5,3.0,27,14,-9,-2.3,0.2,-1
Cc1ccccc1CC1(CO)CCCN(C(=O)CCCN2CCCCC2=O)C1 (stereo unspecified),10,12,-4,0.2,4,2,5,83*,0.8,-6

(continued)
Molecule,Calb FLC,Ecoli rRNA inh,Ecoli rRNA inh OD600,Ecoli rRNA inh RFP,T cruzi inh,B2AR ag,ALR inh,LANA-H2B inh,Bfl-1 A1 inh,Beta apoptosis
CC(C)n1c(/C=C/c2ccccc2)nc2ccccc21,-27,/,/,/,0,-3,-1,-0.3,-1.4,0
Cc1ccc(NC2=CC(=O)CC(C)(C)C2)cc1F,18,9,12,0.3,-5,1,-7,-1.9,-1.3,0
CC(C)(O)C1CC[C@@](C)([C@@H]2CC[C@]3(C)[C@H]2[C@H](O)CC2[C@@]4(C)CCC(O)C(C)(C)C4C(OC4OC(CO)C(O)C(O)C4O[C@@H]4OCC(O)C(O)C4O)C[C@]23C)O1 (stereo partly specified),/,4,0,1.4,/,0,-5,1.8,1.1,0
CNc1cc(C)c(C#N)c2nc3ccccc3n12,-9,-7,-1,1.5,-2,14,-7,-6.2,1.0,10
Cc1ccccc1-n1nc(C)c2cc(C(=O)NCc3cccnc3)sc21,17,/,/,/,6,1,8,1.6,1.3,3

8 compounds already listed, sorted by length of the SMILES, rising:
Molecule,Calb FLC,Ecoli rRNA inh,Ecoli rRNA inh OD600,Ecoli rRNA inh RFP,T cruzi inh,B2AR ag,ALR inh,LANA-H2B inh,Bfl-1 A1 inh,Beta apoptosis
c1ccc(-c2csc(Nc3cccnc3)n2)nc1,3,/,/,/,36,-25,5,-1.4,0.1,0
Cc1ccc(NC2=CC(=O)CC(C)(C)C2)cc1F,18,9,12,0.3,-5,1,-7,-1.9,-1.3,0
CCCn1ncc2c(Nc3ccc(C)c(C)c3)ncnc21,-9,-5,-14,1.3,8,5,96*,0.8,-0.8,-6
CN1N=C(C(=O)Nc2ccc3c(c2)CCC3)CCC1=O,-24,1,-3,-0.6,3,14,-6,3.1,-1.2,-1
Cc1ccccc1-n1nc(C)c2cc(C(=O)NCc3cccnc3)sc21,17,/,/,/,6,1,8,1.6,1.3,3
CN(CC(=O)NCCc1ccccc1)S(=O)(=O)c1cccc2nsnc12,-23,/,/,/,-1,5,-2,9.3,1.4,-16
CC1CN(C2=NC(=O)/C(=C3/C(=O)N(Cc4ccc(F)cc4)c4ccccc43)S2)CC(C)O1 (stereo unspecified),-1,11,5,3.0,27,14,-9,-2.3,0.2,-1
CC(C)(O)C1CC[C@@](C)([C@@H]2CC[C@]3(C)[C@H]2[C@H](O)CC2[C@@]4(C)CCC(O)C(C)(C)C4C(OC4OC(CO)C(O)C(O)C4O[C@@H]4OCC(O)C(O)C4O)C[C@]23C)O1 (stereo partly specified),/,4,0,1.4,/,0,-5,1.8,1.1,0

Source: PubChem BioAssay
